From PubChem
Rango dissoc inh – qHTS Assay for Inhibitors of RanGTP induced Rango (Ran-regulated importin-beta cargo) - Importin beta complex dissociation; Snurportin-1 (Homo sapiens) + GTP-binding nuclear protein Ran (Homo sapiens) + Importin …; Biochemical FRET Rango-importin beta, RanGTP-induced dissociation; Potency, µM (doses to about 46.1 µM), for the others: top-dose activity change, negative = inhibition; hit rate 0.071% among 340,000; AID 540253, 2011; active means falling FRET ratio curve, often poorly fitted, with flat reads before Ran was added; inconclusive means other falling curves, or compound fluorescence or quenching; inactive means flat or rising ratio curve;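 also: potency is read from the fitted curve at half-maximal effect; % of control where 0% means no effect; nearly all actives have a fitted effect of over 45% in size; -100% = wells without RanGTP and RCC1; the record marks most hits as doubtful in a second field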
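Two FRET readings bracket the reaction: one 5 min after compound meets Rango–importin beta, another 45 min after RanGTP-RCC1 (0.6 uM Ran, 0.2 uM RCC1, 2 mM GTP) is added. Only the second defines inhibition.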
miR-21 FLuc – qHTS Assay for Modulators of miRNAs and/orActivators of miR-21 | HeLa miR-21 FLuc reporter, luciferase, 48 h | Potency, µM (top dose mostly 38.3 µM), for the others: at the highest dose reporter change, positive = more light | 340,000 tested, under 10 active | AID 2288, 2010; active = well fitted rising curve with a large enough effect; inconclusive = small, poorly fitted or top-dose-only effect; inactive = no such curve, though single readings can be large or run the other way;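 also: % of control where 0% means no effect; miR-21 action dims this reporter so a rising signal means less miR-21 action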
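HeLa miR-21-FLuc reporter line, endogenous miR-21; 2000 cells/well in DMEM/10% FBS; compound titration up to ~40uM final, 48 h, 37 degree Celsius; luciferase detection reagent, 15 min lysis, CCD luminescence.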
Rango complex inh – qHTS Assay for Inhibitors of Rango (Ran-regulated importin-beta cargo) - Importin beta complex formation; hit rate 0.031% among 340,000; Potency, µM (series often up to 92.2 µM), for the others: at the highest dose inhibition of complex formation; Importin subunit beta-1 (Homo sapiens), Q14974; Rango CFP/YFP FRET sensor + importin beta, 45 min; active = rising FRET ratio curve, often small or poorly fitted; inconclusive = mostly compound fluorescence or quenching in the first reads; inactive = flat curves in all reads;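 also: potency is read from the fitted curve at half-maximal effect; 0% = DMSO wells and 100% = buffer wells lacking importin beta; nearly all actives have a fitted effect of over 15% in size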
Target sequence (Q14974 whole entry, looked up): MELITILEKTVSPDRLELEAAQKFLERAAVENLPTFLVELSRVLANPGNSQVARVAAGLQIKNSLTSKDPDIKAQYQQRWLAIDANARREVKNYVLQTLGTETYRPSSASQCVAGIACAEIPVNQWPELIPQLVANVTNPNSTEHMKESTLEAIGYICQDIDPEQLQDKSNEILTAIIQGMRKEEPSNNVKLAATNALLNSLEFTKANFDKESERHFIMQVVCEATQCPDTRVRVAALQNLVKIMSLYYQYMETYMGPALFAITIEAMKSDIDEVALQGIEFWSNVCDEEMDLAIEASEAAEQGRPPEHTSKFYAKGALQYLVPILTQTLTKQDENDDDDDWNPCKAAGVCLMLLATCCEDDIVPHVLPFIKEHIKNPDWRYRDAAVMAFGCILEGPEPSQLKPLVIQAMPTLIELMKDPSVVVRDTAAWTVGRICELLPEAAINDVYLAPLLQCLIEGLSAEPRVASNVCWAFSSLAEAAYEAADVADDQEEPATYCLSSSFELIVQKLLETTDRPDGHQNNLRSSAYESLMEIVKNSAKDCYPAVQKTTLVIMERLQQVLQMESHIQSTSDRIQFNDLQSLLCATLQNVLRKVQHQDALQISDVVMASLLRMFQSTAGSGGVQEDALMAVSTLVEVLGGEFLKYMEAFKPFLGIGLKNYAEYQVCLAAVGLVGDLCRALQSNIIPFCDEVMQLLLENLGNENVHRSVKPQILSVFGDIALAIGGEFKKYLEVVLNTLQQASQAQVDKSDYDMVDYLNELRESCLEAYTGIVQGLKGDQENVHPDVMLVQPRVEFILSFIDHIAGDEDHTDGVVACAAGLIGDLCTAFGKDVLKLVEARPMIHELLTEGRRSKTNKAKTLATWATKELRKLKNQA
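Inhibition scored from the CFP 486 nm/YFP 530 nm FRET ratio 45 min after adding 0.125 microM importin beta to 50 nM Rango biosensor preincubated 5 min with compound (room temperature, PBS with DTT, Tween-20, BSA). No-importin wells as positive control.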
GLA inh pH 4.5 – qHTS Assay for Inhibitors of Human alpha-Galactosidase at pH 4.5; Alpha-galactosidase A (Homo sapiens), P06280; purified enzyme, 4-MU-alpha-Gal fluorescence, pH 4.5; activity change, negative = inhibition, % at 105 µM; 230,000 tested, under 10 active; AID 1467, 2008; inconclusive = small, poorly fitted or top-dose-only inhibition, or a rising curve; inactive = flat fitted curve, though single readings scatter; no compound was filed as active;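 also: 0% = full activity with enzyme and -100% = basal without enzyme; dose as in the result columns while the protocol names 77 µM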
* hit, by the source's call; & = joins results of further samples. Only part of the results is shown (hit frequency here may not be typical).

Preview:
Screening CCN(CC(=O)Nc1ccccc1C(F)(F)F)C(=O)c1ccc(N2CCCC2=O)cc1 returned Rango dissoc inh 6% and Rango complex inh 3.1%.
`C#CCOCCOCCOCCNc1nc(N2CCN(C(=O)CCCCCCCCCCNC(=O)[C@H]([C@@H](C)CC)n3cc(CCCCCN)nn3)CC2)nc(N2CCN(C(=O)CCCCCCCCCCNC(=O)[C@@H]([C@H](C)O)n3cc(C)nn3)CC2)n1` gave Rango dissoc inh 3% and Rango complex inh 2.3%.

This part in full, from the first entry:
Screening CCN(CC(=O)Nc1ccccc1C(F)(F)F)C(=O)c1ccc(N2CCCC2=O)cc1 returned Rango dissoc inh 6% and Rango complex inh 3.1%.
`C#CCOCCOCCOCCNc1nc(N2CCN(C(=O)CCCCCCCCCCNC(=O)[C@H]([C@@H](C)CC)n3cc(CCCCCN)nn3)CC2)nc(N2CCN(C(=O)CCCCCCCCCCNC(=O)[C@@H]([C@H](C)O)n3cc(C)nn3)CC2)n1` gave Rango dissoc inh 3% and Rango complex inh 2.3%.
`COc1ccc(CN2CCNC(=O)C2CC(=O)NC2Cc3ccccc3C2)c(OC)c1` (stereo not given) gave Rango dissoc inh 17%, miR-21 FLuc 3%, Rango complex inh -3.0% and GLA inh pH 4.5 0.
For O=C(COC(=O)CCc1ccc(S(=O)(=O)N2CCOCC2)cc1)NC(=O)NC1CCCCC1 the results were Rango dissoc inh -1%, miR-21 FLuc 0%, Rango complex inh -1.8% and GLA inh pH 4.5 -19.
Screening COc1cc(/C=N/NC(=O)c2cccc([N+](=O)[O-])c2)ccc1OCc1ccccc1 returned Rango dissoc inh 0%, miR-21 FLuc -10%, Rango complex inh -1.8% and GLA inh pH 4.5 1.
For O=C(O)CCCC(=O)Nc1ccc(C(=O)NCc2cccnc2)cc1 the results were Rango dissoc inh -2%, miR-21 FLuc -4%, Rango complex inh -1.4% and GLA inh pH 4.5 -4.
Screening O=C(O)c1cc(=O)[nH]c2ccccc12 returned Rango dissoc inh 2% and Rango complex inh 1.1%.
For COc1ccc(-c2nc(CN3CCC(C(=O)NCC4CCCO4)CC3)c(C)o2)cc1OC (stereo not given) the results were Rango dissoc inh -4%, miR-21 FLuc 0% and Rango complex inh -3.3%.
Screening CCOc1ccc(OCC)c(NC(=O)CN2CCN(CC(=O)NC(C)C)CC2)c1 returned Rango dissoc inh -23%, miR-21 FLuc 24% and Rango complex inh 1.9%.
For COC(=O)c1sc(NC(=O)COc2cccc(C)c2)nc1C the results were Rango dissoc inh -4%, miR-21 FLuc -17%, Rango complex inh -2.8% and GLA inh pH 4.5 -6.
For CCN(CC)CCNC(=O)c1ccc(NC(C)=O)cc1 the results were Rango dissoc inh 1%&12%, miR-21 FLuc 0%&3%, Rango complex inh 1.2%&0.2% and GLA inh pH 4.5 0&2&10&7.
c1cncc(COC2CCCN(Cc3nc(-c4cccs4)no3)C2)c1 (stereo not given) was read as Rango dissoc inh 14%, miR-21 FLuc -5%, Rango complex inh 1.0% and GLA inh pH 4.5 5.
For O=C(O)c1cc(S(=O)(=O)NC23CC4CC(CC(C4)C2)C3)ccc1Cl the results were Rango dissoc inh -7%, miR-21 FLuc -2% and Rango complex inh -0.3%.
CCCNC(C)(C)COC(=O)c1ccccc1 was read as Rango dissoc inh -9%, Rango complex inh 1.7% and GLA inh pH 4.5 -22.
Cc1ccc(C(=O)NC(=O)CSc2ncccc2C(=O)O)cc1 was read as Rango dissoc inh 12%, miR-21 FLuc 4%, Rango complex inh 0.7% and GLA inh pH 4.5 -6.
Cc1noc(C)c1NC(=O)N(C)C[C@H]1Oc2c(NC(=O)Cc3ccccc3)cccc2C(=O)N([C@H](C)CO)C[C@@H]1C was read as Rango dissoc inh 25% and Rango complex inh 2.2%.
For Cc1ccc(S(=O)(=O)N(C)C)cc1NC(=O)CSc1nc2ncc(Cl)cc2[nH]1 the results were Rango dissoc inh 0% and Rango complex inh -0.8%.
Cc1ccccc1/C=C\c1nc2ccccc2c(=O)[nH]1 was read as Rango dissoc inh -4%, miR-21 FLuc -30%, Rango complex inh 3.9% and GLA inh pH 4.5 5.
CCOC(=O)c1[nH]c2ccccc2c1NC(=O)COC was read as Rango dissoc inh -3%, miR-21 FLuc -3%, Rango complex inh 3.5% and GLA inh pH 4.5 -6.
COc1cc(C2C(C#N)=C(N)Oc3c2c(-c2ccccc2)nn3-c2ccccc2)cc(OC)c1OC (stereo not given) was read as Rango dissoc inh 13%, miR-21 FLuc 0%, Rango complex inh -2.7% and GLA inh pH 4.5 -2.
Cc1ccc(P(=O)(OCCN2CCOCC2)C(C)(C)C)o1 (stereo not given) was read as Rango dissoc inh 24%, miR-21 FLuc 0%, Rango complex inh 2.2% and GLA inh pH 4.5 1.
CC(C)C(c1nnnn1CCc1ccccc1)N1CCSCC1 (stereo not given) was read as Rango dissoc inh 10%, miR-21 FLuc 0%, Rango complex inh -4.3% and GLA inh pH 4.5 -4.
Screening Cc1ccc(S(=O)(=O)N(CCC(=O)Nc2ccc(OC(F)(F)F)cc2)c2ccccc2)cc1 returned Rango dissoc inh 8%, miR-21 FLuc 2%, Rango complex inh inconclusive and GLA inh pH 4.5 -18.
For CC(=O)NCCc1nc2cc(NC(=O)c3ccccc3C)ccc2n1C the results were Rango dissoc inh -2%, miR-21 FLuc -23% and Rango complex inh 1.6%.
Screening CCn1c(SCC(=O)Nc2ccc3c(c2)OCCO3)nnc1-c1cccs1 returned Rango dissoc inh 10%, miR-21 FLuc -6%, Rango complex inh 7.6% and GLA inh pH 4.5 0.
`COc1ccc(C)cc1NC(=O)CN1CCN(S(=O)(=O)c2ccc(Br)cc2)CC1` gave Rango dissoc inh 16%, miR-21 FLuc -2%&-2%, Rango complex inh -1.2% and GLA inh pH 4.5 -15.
`NC(=O)NCc1ccccc1Cl` gave Rango dissoc inh -13%, miR-21 FLuc 1%, Rango complex inh -0.9% and GLA inh pH 4.5 0.
`Cc1ccccc1CCNC(=O)c1ccc(Cl)c(S(=O)(=O)N2CC(C)OC(C)C2)c1` (stereo not given) gave Rango dissoc inh -8% and Rango complex inh inconclusive.
Screening O=C(CCc1nc(-c2ccccc2F)no1)NCCc1ccccc1Cl returned Rango dissoc inh 9%, miR-21 FLuc -5%, Rango complex inh -3.2% and GLA inh pH 4.5 -2.
`Nc1cc(-c2ccccc2)nn1S(=O)(=O)c1ccc(F)cc1` gave Rango dissoc inh -11%, miR-21 FLuc 22%, Rango complex inh 1.7% and GLA inh pH 4.5 -6.
CN(CCc1ccccc1)C(=O)c1cccc(NC(=O)Cc2cccc(NC(=O)C3CCCN(C(=O)C4CC4)C3)c2)c1 (stereo not given) was read as Rango dissoc inh -1% and Rango complex inh -1.0%.
For CCOC(=O)C1(CCCc2ccccc2)CCN(C(=O)c2ccoc2)CC1 the results were Rango dissoc inh 4%, miR-21 FLuc -5%, Rango complex inh -0.9% and GLA inh pH 4.5 6.
`O=C(NC(=S)Nc1ccccc1Cl)C1CC1` gave Rango dissoc inh 9%, miR-21 FLuc -42% and Rango complex inh 1.0%.
`COc1ccc(F)cc1CN1CCN(CC(=O)Nc2ccccc2C(=O)NC2CC2)CC1` gave Rango dissoc inh -18% and Rango complex inh 4.3%.
COc1ccc(-c2[nH]ncc2-c2nc(C)cs2)c(O)c1 was read as Rango dissoc inh -5%, miR-21 FLuc -6%, Rango complex inh -2.7% and GLA inh pH 4.5 -5.
`O=C(NCc1ccc2c(c1)OCO2)c1cccc([N+](=O)[O-])c1` gave Rango dissoc inh 1%, miR-21 FLuc -7%, Rango complex inh -0.1% and GLA inh pH 4.5 4.
`O=C(Nc1ccc(Cl)cc1C(=O)Nc1ccccn1)c1ccco1` gave Rango dissoc inh 6%, miR-21 FLuc 1%, Rango complex inh -2.2% and GLA inh pH 4.5 0.
`O=C(CNC(=O)c1ccc(Br)o1)NC1CCCCCC1` gave Rango dissoc inh -13% and Rango complex inh 3.8%.
For CCOC(=O)C1=C(c2ccccc2)NC(=O)NC1c1cc(Cl)c(O)c(OC)c1 (stereo not given) the results were Rango dissoc inh -22%, miR-21 FLuc -7%, Rango complex inh 6.3% and GLA inh pH 4.5 1.
Screening CC(C)(C)N1CC23CCC(C[C@@H]2C1=O)O3 (stereo not given in full) returned Rango dissoc inh -4% and Rango complex inh -3.3%.
Cc1ccc(S(=O)(=O)N2CCN(CC(O)c3ccccc3)CC2)cc1C (stereo not given) was read as Rango dissoc inh -1%, miR-21 FLuc -4%, Rango complex inh 0.5% and GLA inh pH 4.5 6.
Screening COc1ccc(C(=O)Nc2ccc(/C(C)=N/NC(=O)c3ccccc3O)cc2)cc1OC returned Rango dissoc inh 4%, miR-21 FLuc -45%, Rango complex inh 1.6% and GLA inh pH 4.5 1.
Cc1c(-c2cccs2)[n+](=O)c2c(n1[O-])CCC2 was read as Rango dissoc inh -4%, miR-21 FLuc -2%, Rango complex inh 3.1% and GLA inh pH 4.5 11.
For Cc1ccccc1/C=N/NC(=O)Cn1nnc(N)n1 the results were Rango dissoc inh 10%, miR-21 FLuc -2%, Rango complex inh -0.4% and GLA inh pH 4.5 -3.
Cc1ccc(-n2ncc3c2CC(C)(C)CC3NC(=O)CCn2cncn2)cc1 (stereo not given) was read as Rango dissoc inh inconclusive, miR-21 FLuc -5% and Rango complex inh 0.7%.
For CC(=O)N1CCN(C(=O)c2cc(S(=O)(=O)N(C)c3ccc(F)cc3)ccc2Cl)CC1 the results were Rango dissoc inh 6% and Rango complex inh -0.1%.
For COc1ccc(-c2csc(NC(=O)CSC(C)C(=O)Nc3cc(C)on3)n2)cc1OC (stereo not given) the results were Rango dissoc inh -12% and Rango complex inh 0.5%.
Screening CCN(CC)CCCNc1oc(-c2ccc(OC)c(OC)c2)nc1C#N returned Rango dissoc inh 4%, miR-21 FLuc -15%, Rango complex inh 3.3% and GLA inh pH 4.5 -3.
Screening COC(=O)C1=C(C)N(Cc2ccccc2)C(=NCCCCO)N[C@H]1c1ccccc1 returned Rango dissoc inh -23%, miR-21 FLuc -3%&3% and Rango complex inh inconclusive.
Screening Cc1ccc(CSc2nc3nc(C)cc(C)c3c(=O)[nH]2)cc1 returned Rango dissoc inh 2%, miR-21 FLuc -2%, Rango complex inh -0.1% and GLA inh pH 4.5 -6.
For COc1ccc(C(=O)NCc2ccccc2C)cc1S(=O)(=O)NC1CCCC1 the results were Rango dissoc inh -9% and Rango complex inh -1.0%.
Screening CC(C)OC(=O)Cc1nc2sc(-c3ccccc3)cc2c(=O)[nH]1 returned Rango dissoc inh inconclusive, miR-21 FLuc -55% and Rango complex inh inconclusive.
Screening O=[N+]([O-])c1ccccc1S(=O)(=O)NCCc1ccncc1 returned Rango dissoc inh -4%, miR-21 FLuc -2%, Rango complex inh -2.9% and GLA inh pH 4.5 7.
Cc1cc(N2CCN(c3ccccc3)CC2)nc2ccccc12 was read as Rango dissoc inh -11%, miR-21 FLuc -24% and Rango complex inh -1.7%.
`N#CCC(=O)Nc1ccc(C(=O)OCC(=O)NNC(=O)c2cccs2)cc1` gave Rango dissoc inh 3% and Rango complex inh inconclusive.
`COc1ccc(C(=O)/C=C/c2ccc(OC)c(COc3ccc(F)cc3)c2)cc1` gave Rango dissoc inh 9%, miR-21 FLuc -9%, Rango complex inh 0.0% and GLA inh pH 4.5 1.
Screening N/C(=N\OC(=O)Cc1ccc([N+](=O)[O-])cc1)c1ccccn1 returned Rango dissoc inh 3%, miR-21 FLuc -33%, Rango complex inh 1.0% and GLA inh pH 4.5 5.
CCN(CC)c1nc(Oc2ccc(=O)[nH]n2)nc(N2CCOCC2)n1 was read as Rango dissoc inh 5%, miR-21 FLuc -5%, Rango complex inh -0.2% and GLA inh pH 4.5 6.
`CCOc1ccc(NC(C)=O)cc1N` gave Rango dissoc inh 0% and Rango complex inh 0.2%.
Screening O=C(CSc1ccc(-c2ccccn2)nn1)NC1CCCC1 returned Rango dissoc inh 11%, miR-21 FLuc -5%, Rango complex inh -11% and GLA inh pH 4.5 9.
O=C(Nc1ccc(F)cc1)c1ccc2ncsc2c1 was read as Rango dissoc inh 1%, miR-21 FLuc -57% and Rango complex inh 0.9%.
